From PubChem BioAssay
RE007 growth inh – qHTS Assay for Inhibitors of the HIV-1 protein Vpr; S. pombe RE007 Vpr strain, BacTiter-Glo ATP luminescence, 24 h; control for the full effect not named in the record; 0.21% of 360,000 active; Potency, µM (doses to about 92.2 µM), for the others: top-dose activity change, negative = less growth; active = well fitted falling curve with a large enough effect; inconclusive = small, poorly fitted or top-dose-only effect; inactive = no such curve, though single readings can be large or run the other way;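 note: nearly all actives have a fitted effect of over 50% in size; the assay follows cell death caused by Vpr and the record does not say whether a fall means rescue or toxicity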
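Fission yeast RE007 carrying one integrated HIV-1 vpr copy, seeded at OD 0.01 in PMG+AL medium with 23 nL pinned compound. Grown 24 h at 30 degrees; viability read by BacTiter-Glo luminescence after 5 min.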
2A StopGo – High Throughput Screening for Foot and Mouth Disease Virus Antivirals; human cells with a luciferase reporter of 2A StopGo recoding; control for the full effect not named in the record; Potency, µM (titrated, usually from 57.9 µM), without a hit: at the top dose signal change, negative = less light; 1.2% of 410,000 active; AID 1159524, 2015; active = well fitted falling curve with a large enough effect; inconclusive = small, poorly fitted or top-dose-only effect; inactive = no such curve, though single readings can be large or run the other way; tested in HEK293T cells; note: nearly all actives have a fitted effect of over 45% in size; luciferase light after 4 h
An asterisk follows results filed as active; ? = inconclusive; & = joins results of further samples; [ ] = remark or other dose. % is set by controls: 0 for no effect and ±100 for the full control effect; potency is the fitted concentration of half-maximal effect. This is a subset; count on the stated rates, not on these rows.

canonical_smiles | RE007 growth inh | 2A StopGo
CC1(C(=O)NS(=O)(=O)c2cccc(C#N)c2)CCN1C(=O)C/C=C/c1ccccc1 (stereo not given) | 5%[18.4 µM] | 4%
c1ccc(-c2cc3nc(NCc4cccs4)ccn3n2)cc1 | ? | 11%
CCc1ccc2c(c1)NC(=O)C2(C)Cc1ccc(Cl)cc1 (stereo not given) | 9% | -14%
CCOc1ccccc1O[C@H](c1ccccc1)[C@H]1CNCCO1 | 9%[18.4 µM] | -11%&-32%
Cc1ccc(NC(=O)c2cccc(S(=O)(=O)Nc3c(C)n(C)n(-c4ccccc4)c3=O)c2)cc1C | 0% | 7%
CCCNC(=O)C1(C)CCCN(C(=O)COCc2ccccc2)C1 (stereo not given) | -10% | -11%
CNc1cc(-c2c(OC)cccc2OC)ncn1 | 0% | -15%
COc1ccc(C2=Nc3ccccc3NC(=O)C2N(CCCn2ccnc2)C(=O)c2cccc(S(C)(=O)=O)c2)cc1 (stereo not given) | -24% | -4%
CCN(CC)CCCN1C=C2C(=O)C(C)(OC(=O)CCC(=O)OC)C(=O)C=C2C=C1C1CC1 (stereo not given) | -15% | 0%
CCc1nc2ccc(C(=O)NCCCn3ccnc3)cn2c1N(CC)Cc1cccc(Br)c1 | -11% | -15%
O=C(NC1CCCCC1)c1cccc2c(-c3ccc(F)c(F)c3)coc12 | -22% | -16%
C[C@H](O)[C@@H]1C(=O)N2CCc3c([nH]c4ccccc34)[C@@H]2C[C@@H]1N(C)C(=O)Nc1cc(Cl)cc(Cl)c1 | -8% | ?
COc1ccc(-c2cc(NC=O)c3ncc(-c4ccc(OC)c(OC)c4)n3c2)cc1 | -4%[18.4 µM] | -29%
CC(=O)Nc1cc(-c2ccc(CO)cc2)cn2c(-c3ccc(F)cc3)cnc12 | 9% | -20%
CCCNC(=O)c1cc(C2CCCN(C(=O)C3CCCCC3)C2)on1 (stereo not given) | -5% | -7%
COC(=O)[C@]12CCCCC=C1N(CCC1=CCCCC1)C(=O)[C@H](CC(=O)NCc1cccs1)C2 | 2% | 14%
COc1cc(C(O)c2nc(-c3cc4ccccc4o3)cs2)ccc1F (stereo not given) | ? | -8%
O=c1[nH]c2ccccc2n1C1CCN(C(c2cc3ccccc3o2)c2nnnn2-c2ccc3c(c2)OCCO3)CC1 (stereo not given) | 7% | 35µM*
CNc1cc(C(=O)Nc2cccc(OCc3ccccc3)c2)ncn1 | -7% | 27%
CSc1cccc(NC(=O)C2CC(=O)N(c3ccc4c(c3)OCCO4)C2)c1 (stereo not given) | -9% | -13%
CN(Cc1ccccc1)C(CNS(=O)(=O)c1ccccc1)c1ccccc1 (stereo not given) | -10% | 19%
Cc1c(C(=O)N2CCC(C)(C(=O)NS(=O)(=O)C3CC3)C2)oc2ccccc12 (stereo not given) | -2% | -7%
CN(C(=O)COC(=O)c1cccs1)c1ccccc1 | -3% | 2%
C=CCNc1nc(NCCNC(C)=O)c2sc(-c3ccccc3)cc2n1 | -26% | -6%
COc1ccc(CCNC(=O)Nc2nnc([C@@H]3C[C@H](O)[C@@H](CO)O3)s2)cc1OC | 29% | -12%
CC1(C(=O)NS(=O)(=O)c2ccc(F)cc2F)CCN1C(=O)c1ccc(C2CCCCC2)cc1 (stereo not given) | 14% | -18%
Cc1ccc([C@H]2N[C@]3(CCCN(Cc4ccco4)C3=O)[C@H]3C(=O)N(C)C(=O)[C@@H]23)cc1 | 9% | -7%
CCOC(=O)N1C2=NC(C(=O)OC)=C(C(=O)OC)[C@@H]3N(C)c4ccc(OC)cc4[C@]23C[C@H]1C(=O)OC | -6% | -8%
C=C(C)Cn1c2ccc(NC(=S)NCc3ccccc3F)cc2c(=O)n1C | 7% | 7%
CCc1nc2ccc(C(=O)N3CCN(S(=O)(=O)CC)CC3)cn2c1N(CC)CCOC | 0%[18.4 µM] | -19%

Reformatted: entries from further up.
COC(=O)[C@]12CCCCC=C1N(CCC1=CCCCC1)C(=O)[C@H](CC(=O)NCc1cccs1)C2
  RE007 growth inh: 2%; 2A StopGo: 14%

COc1cc(C(O)c2nc(-c3cc4ccccc4o3)cs2)ccc1F (stereo not given)
  RE007 growth inh: ?; 2A StopGo: -8%

(cont.)
canonical_smiles | RE007 growth inh | 2A StopGo
O=c1cc2c(c(-c3ccccc3)n1Cc1ccccc1)[C@H](CCO)NC2 | -6% | -17%
Cc1cn(CC(=O)NCCCn2ccnc2)c(=O)[nH]c1=O | 10% | -12%
Cc1ccc(Cn2cc(CN3CC(N4CCN(Cc5ccccc5F)CC4)CS3(=O)=O)nn2)cc1 (stereo not given) | -5% | ?
Cc1cc(=O)n(Cc2ccco2)c(=S)[nH]1 | -20% | -15%
CN(C)CC/C=C1\c2ccc(F)cc2Sc2cc(F)c(Cl)cc21 | 1% | ?
COc1cc(OC)c(/C=C2\C(=O)Nc3ccccc32)c(OC)c1 | 4%[18.4 µM] | 28µM*
COc1ccc(-c2ccc(CN3C(C)C(=O)N(Cc4cn(CCC5OCCO5)nn4)CCS3(=O)=O)cc2)cc1OC (stereo not given) | -3% | -25%
CC(C)(C)C(=O)NCc1ccc(C(=O)CSc2nnc3n2CCCCC3)s1 | 3% | -19%
CCOC(=O)[C@]12CCC=C1N(Cc1ccco1)C(=O)[C@H](CC(=O)N1CCCC1)C2 | -10% | 0%
CCCCn1c(N)c(N(CCC(C)C)C(=O)CSc2nc3ccccc3s2)c(=O)[nH]c1=O | -6% | -17%
C[C@@H]1CN([C@H](C)CO)C(=O)c2cc(Br)cnc2O[C@H]1CN(C)Cc1ccccc1 | -18% | -4%
COC(=O)[C@]12CCCCC=C1N(Cc1ccccc1)C(=O)[C@H](CC(=O)N1CCN(C(=O)c3ccco3)CC1)C2 | 5% | -15%
COC(=O)[C@@]12C[C@@H](CC(=O)N3CCN(C(=O)c4ccco4)CC3)C(=O)N(CCc3ccc(OC)c(OC)c3)C1=CCC(C)(C)C2 | -12% | -17%
COc1cccc(CN(C)C[C@H]2OCc3cnnn3CCCC(=O)N([C@H](C)CO)C[C@@H]2C)c1 | 0% | -4%
Cc1ccc(C(=O)N2CCN(c3ccc4c(c3)C3CC4CCN3C(=O)OCc3ccccc3)CC2)cc1 (stereo not given) | 9% | -27%
COc1ccc(Nc2nnc(SCC(=O)N(CC(C)C)C3CCS(=O)(=O)C3)s2)cc1 (stereo not given) | ? | 27%
O=C(Nc1nc2ccccc2s1)c1ccc2sc([C@H]3C[C@H](O)[C@@H](CO)O3)nc2c1 | 3%[18.4 µM] | -16%
NC(COCc1ccccc1)c1csc(Nc2cc(NCCCO)ncn2)n1 (stereo not given) | -6% | -15%
COc1ccc(-c2ccc3c(c2)c(Sc2ccccc2)c(-c2ccccc2)n3C)cc1 | 2% | -29%
CN(C)C(=O)c1ccc(SC(=S)NCc2ccccc2)cc1 | 6%[18.4 µM] | 35µM*
CN(C)c1cccc(CNC(=O)c2csc(COCCO)n2)c1 | 6% | -5%
O=[N+]([O-])c1ccc(NS(=O)(=O)c2ccc(Cl)c(Cl)c2)cc1 | -12%[18.4 µM] | 10%
COc1cccc(S(=O)(=O)N2C[C@H](O)COC[C@H]3O[C@@H](CC(=O)N4CCN(C)CC4)CC[C@@H]32)c1 | 0% | -20%
NC(=O)c1cccc(-c2ccnc3c2CC(C(=O)NCCC(F)(F)F)O3)c1 (stereo not given) | -11% | -15%
Brc1ccc(COc2cccc3cccnc23)cc1 | -24% | 61%[activator]
Cc1noc(C)c1S(=O)(=O)N(C)C[C@H]1OCc2cnnn2CCCC(=O)N([C@@H](C)CO)C[C@H]1C | 0% | -16%
C(=C\c1ccccc1)/CN1CCN(C(c2cc3ccccc3o2)c2nnnn2C2CCCC2)CC1 (stereo not given) | 0% | -24%
CC(C)c1ccc(CN2CCC2(C)C(=O)Nc2cccc(Oc3ccccc3)c2)cc1 (stereo not given) | 6% | -19%
O=C(CNC(=O)N1CC(=O)Nc2ccccc21)Nc1ccc(Cl)cc1Cl | 3% | -23%
CC(=O)Nc1cc(-c2ccccc2CN(C)C)cn2c(-c3ccc(F)c(Cl)c3)cnc12 | -5% | -19%
C/C=C/c1ccc2c(c1)O[C@@H](CN(C)C(=O)c1ccc(F)cc1)[C@@H](C)CN([C@H](C)CO)S2(=O)=O | -7% | -16%
COC(=O)C1=C(C)N(CCCC(=O)O)C(=O)NC1c1ccccc1OS(=O)(=O)c1ccc([N+](=O)[O-])cc1 (stereo not given) | -6% | -14%
CCOC(=O)CC(S(=O)(=O)c1ccccc1)S(=O)(=O)c1ccccc1 | 2µM* | ?
CS(=O)(=O)c1ccc(-c2csc(C(O)(c3ccccc3)C(F)(F)F)n2)cc1 (stereo not given) | 19% | ?
CCOc1ccc(NC(=O)CN(C)C(=O)CCc2nc3ccccc3c(=O)[nH]2)cc1OCC | 8% | -18%
CN1OC[C@@H]2CN3C(=O)N(c4ccccc4)c4ccccc4[C@@H]3C[C@@H]21 | 4% | -19%
COc1ccc(C(C(=O)NC2CCCC2)n2c(-c3cccs3)nc3ccccc32)cc1 (stereo not given) | 10% | -24%
C[C@@H]1CN([C@H](C)CO)C(=O)CCCn2nncc2CO[C@H]1CN(C)C(=O)C1CCCCC1 | 23% | -12%
Cc1ccc(Cc2c(C3CCCCC3)nc3cc(C)c(Br)c(C)n23)cc1 | 14% | -15%
C[C@H](NC(=O)c1ncn2c1C(=O)N[C@@H](C)C2)c1ccccc1 | -18% | -4%
COc1ccc(CNC(=O)c2ccc(N3CCC4(CC3)CC(c3ccc(Cl)cc3)=NO4)c(NC(=O)c3ccccc3)c2)cc1 | -10% | -2%
O=C(Nc1ccccc1)c1cc(C2CCCCN2S(=O)(=O)c2ccccc2)on1 (stereo not given) | 1% | 4%
Cc1cccc(C(O)c2cnc(C)n2Cc2ccccc2)c1 (stereo not given) | 11% | -27%
CCOc1ccc(OCC(=O)OCC(=O)N2CCN(S(=O)(=O)c3ccc(C)cc3C)CC2)cc1 | -1% | -8%
O=S(Cc1ccccc1)Cc1ccccc1 | 1% | -15%
COc1ccccc1-c1nnc(NC(=O)CCS(=O)(=O)c2ccc(F)cc2)o1 | -3% | 0%
CC1(C(=O)NS(=O)(=O)c2ccccc2)CCN1C(=O)Cc1ccccc1Cl (stereo not given) | 2%[18.4 µM] | -13%
O=C(Nc1ccc2c(c1)OCCO2)C(C1CC1)N1CCC(Cc2ccccc2)CC1 (stereo not given) | -11% | -10%
CCCCNS(=O)(=O)c1cccc(NC(=O)[C@@H]2O[C@H](CO)[C@H](O)[C@H](O)[C@H]2O)c1 | 12% | -21%
COC(=O)C(C(=O)OC)[C@@H]1C=C[C@H](C[N+](=O)[O-])N(C(C)=O)C1 | -7% | -11%
CN(C)c1ccc(NC(=O)Nc2ccc3c(c2)c(=O)n(C)n3-c2ccccc2)cc1 | -14% | -8%
CC(=O)c1ccc(-c2c(CCO)sc3ccccc23)cc1 | -15% | 12%
C=CCN1c2ccccc2[C@]23C[C@@H](C(=O)OC)N(C(=O)NC4CCCC4)C2=NC(C(=O)OC)=C(C(=O)OC)[C@H]13 | -2% | -23%
C[C@H]1CN([C@@H](C)CO)C(=O)c2cc(Br)cnc2O[C@@H]1CN(C)S(C)(=O)=O | -1% | ?
Cc1cc(=O)oc2cc(OCC(=O)N3CCCC3)ccc12 | 0% | -1%
CCCCC(=O)N(C)c1c(CC)nc2c(OCc3ccc(S(C)(=O)=O)cc3)cccn12 | -23% | -24%
CN(C)c1ccc(C(=O)C(=O)N2CCN(c3ccccc3)CC2)cc1 | -17% | -9%
CC1=CN2C(c3cccc([N+](=O)[O-])c3)=NON(c3ccc(C)cn3)C2C=C1 (stereo not given) | -6% | 3%
CCOC(=O)C1=CCN(S(=O)(=O)c2ccccc2Br)C1c1ccc(Cl)c(Cl)c1 (stereo not given) | 7% | -24%
COC(=O)C1=C(c2cccc(OC)c2OC)C[C@@H]2CC[C@H]1N2C(=O)N1CCOCC1 | 16% | -18%

5 of these compounds in a different format.
Each structure is followed by: RE007 growth inh, 2A StopGo
> CCCCNS(=O)(=O)c1cccc(NC(=O)[C@@H]2O[C@H](CO)[C@H](O)[C@H](O)[C@H]2O)c1
→ 12%, -21%
> O=C(Nc1ccc2c(c1)OCCO2)C(C1CC1)N1CCC(Cc2ccccc2)CC1 (stereo not given)
→ -11%, -10%
> COC(=O)C1=C(c2cccc(OC)c2OC)C[C@@H]2CC[C@H]1N2C(=O)N1CCOCC1
→ 16%, -18%
> C=CCN1c2ccccc2[C@]23C[C@@H](C(=O)OC)N(C(=O)NC4CCCC4)C2=NC(C(=O)OC)=C(C(=O)OC)[C@H]13
→ -2%, -23%
> COc1ccccc1-c1nnc(NC(=O)CCS(=O)(=O)c2ccc(F)cc2)o1
→ -3%, 0%

Next part:
canonical_smiles | RE007 growth inh | 2A StopGo
COc1ccc(C(C)C)cc1-c1cncc(NC(C)=O)n1 | 8%[18.4 µM] | 6%
CC1(C(=O)NS(=O)(=O)c2cccc(Cl)c2)CCN1C(=O)CC1CCCCC1 (stereo not given) | 7% | -15%
C=CCC[C@@H](CCCCC)OC(=O)/C=C/[C@H](O)[C@@H](O)C[C@@H](O)CC=C | 1% | ?
COc1cccc(C(NC(C)=O)c2nc(-c3cccc(F)c3)cs2)c1 (stereo not given) | 20% | -1%
O=C(Nc1ccc2c(c1)OCO2)C1Cc2c(-c3ccncc3)ccnc2O1 (stereo not given) | 1% | -15%
